Screening results (PubChem)
ALR inh = human ALR oxidase inhibition via reduced H2O2; AID 485317; P55789; purified ALR, DTT oxidation, H2O2 HRP-luminol luminescence; inhibition, % (no concentration beside the values); 290,000 compounds, 3.8% hits;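 active means mean and each replicate at 75% or more; inconclusive means only one of the two met; inactive means neither met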;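 further: stock transfer was 7.5 nL into about 7.5 µL; 0% = neutral wells and 100% = wells with inactivated enzyme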
Target sequence (P55789 whole entry, looked up): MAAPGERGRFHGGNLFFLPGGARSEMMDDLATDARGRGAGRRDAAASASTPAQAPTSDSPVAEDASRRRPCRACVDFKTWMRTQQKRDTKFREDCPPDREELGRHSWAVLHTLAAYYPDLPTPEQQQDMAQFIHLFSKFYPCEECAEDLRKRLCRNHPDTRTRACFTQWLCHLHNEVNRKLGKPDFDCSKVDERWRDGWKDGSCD
Ecoli rRNA inh = inhibitors of bacterial rRNA selective over humanized ribosomes; GFP signal change (wild-type ribosome), % (concentration not given with the values); AID 720706; 350,000 compounds, 1.6% hits; E. coli WT GFP vs humanized-ribosome RFP mutants, fluorescence, 24 h; active compounds read low; DMSO median 0, no signal -100;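 active means significant combined selectivity score with lowered wild-type GFP, culture density cut under 30%, mutant RFP and density less affected; inactive means any of these conditions unmet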; further: one replicate is shown; some compounds called inactive have numbers as strong as hits
Vif A3G = HIV-1 Vif–A3G interaction blockers – biochemical, TR-FRET, GST-Vif 1-94, biotin-A3G peptide, dose response retest, primary screen (AID 1117319). 260,000 compounds, 0.57% hits. one-dose inhibition, %; IC50 in µM for titrated hits. TR-FRET GST-Vif / biotin-A3G peptide binding; higher % means a stronger effect; test concentration not given here; strong numbers were not always called active;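 active means above the screen mean plus three standard deviations and confirmed in dose response; inconclusive means results disagree or hit not tested in dose response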;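 further: Vif residues 1-94 fused to GST binding biotinylated APOBEC3G peptide 110-148; 0% = full assay without inhibitor and 100% = GST in place of GST-Vif; retest series ran down from 100 µM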
E coli growth = blocks Escherichia coli growth. OD600, 23 h; active compounds read low. OD600 absorbance (concentration not given with the values). 330,000 compounds, 0.21% hits;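 active means OD600 absorbance below the run mean of sample wells minus 3.6 SD, in any replicate, cut at about 0.56 in these data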;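 further: stock transfer was 300 nL into about 60 µL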
FGF22 binding = binders of recombinant human FGF22 by thermal shift | AID 651658 | 340,000 compounds, 1.5% hits | calls only at 9.99 µM | SYPRO orange fluorescence; percent of sucrose octasulfate shift, DMSO zero;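 active means melting point raised past a set limit in the mean and every replicate; inconclusive means no clear call; three in four hits are not shown here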
Target sequence (Q9HCT0 whole entry, looked up): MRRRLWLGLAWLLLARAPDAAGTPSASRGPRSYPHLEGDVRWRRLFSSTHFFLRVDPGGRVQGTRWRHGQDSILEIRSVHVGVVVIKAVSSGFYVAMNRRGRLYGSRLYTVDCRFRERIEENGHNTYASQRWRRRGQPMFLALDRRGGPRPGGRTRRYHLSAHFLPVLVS
HNF4A DNA FP = change in binding of human HNF4 alpha to DNA | activity change, % at 10 µM | HNF4a-FITC DNA binding, fluorescence polarization, 1 h | P41235 | 360,000 compounds, 0.3% hits; in the data active means activity change above about 30%, passing the limit was not always enough;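 further: controls were the assay level and a saturating level of protein; the project sought stronger binding though the title names inhibitors; some compounds called inactive have numbers as strong as hits; positive values seem to mean higher polarization but the record does not say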
MLL AF4-AF9 inh = inhibitors of human MLL-AF4/AF9 interaction; P42568; AlphaScreen, biotin-AF4 peptide binding to FLAG-AF9; inhibition, % at 10 µM; 350,000 compounds, 0.47% hits; AID 651704;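 active means every replicate reaching a set inhibition limit, whatever the replicate mean, cut at about 25% in these data; inconclusive means mean inhibition reaches that limit but some replicates miss it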;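 further: 0% = plate neutral control median and 100% = total signal loss; the record names both 10 and 1 µM as test concentration; the first replicate is given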
Target sequence (P42568 whole entry, looked up): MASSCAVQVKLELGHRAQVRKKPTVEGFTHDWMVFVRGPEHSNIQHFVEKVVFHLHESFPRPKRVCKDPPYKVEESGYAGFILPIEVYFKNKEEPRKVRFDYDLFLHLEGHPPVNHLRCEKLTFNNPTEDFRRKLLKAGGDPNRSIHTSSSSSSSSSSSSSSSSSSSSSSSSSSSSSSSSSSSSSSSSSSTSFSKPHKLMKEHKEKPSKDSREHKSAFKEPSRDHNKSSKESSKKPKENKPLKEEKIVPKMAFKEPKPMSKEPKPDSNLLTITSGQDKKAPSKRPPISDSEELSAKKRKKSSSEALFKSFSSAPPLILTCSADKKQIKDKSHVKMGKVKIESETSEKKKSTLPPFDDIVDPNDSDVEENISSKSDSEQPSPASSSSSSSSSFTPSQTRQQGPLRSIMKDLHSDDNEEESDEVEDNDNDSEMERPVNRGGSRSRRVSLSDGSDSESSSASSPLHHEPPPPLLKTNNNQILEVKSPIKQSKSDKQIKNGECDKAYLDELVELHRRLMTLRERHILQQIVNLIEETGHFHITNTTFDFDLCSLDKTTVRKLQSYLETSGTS
Ecoli rRNA inh OD600 = recorded beside Ecoli rRNA inh, whose call it bears; OD600 change, %; measured here: OD600 growth;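 optical density of the mix in the first replicate; 0 = DMSO median and -100 = no signal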
Ecoli rRNA inh RFP = also measured in Ecoli rRNA inh; calls as there; RFP signal change, %; measured here: RFP humanized mutant strains;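 first replicate; 0 = DMSO median and -100 = no signal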
Active calls of the source: *; i = inactive; ? = inconclusive; nt = not tested or not shown; & = joins results of further samples. Only part of the results is shown; the hit share may differ from the screen's.

SMILES | ALR inh | Ecoli rRNA inh | Ecoli rRNA inh OD600 | Ecoli rRNA inh RFP | Vif A3G | E coli growth | FGF22 binding | HNF4A DNA FP | MLL AF4-AF9 inh
O=C(NCC[C@H]1CC[C@H](NS(=O)(=O)c2cccc(F)c2)[C@@H](CO)O1)C1CCCCC1 | nt | -3 | -4 | 0.9 | nt | nt | i | nt | 0.5
CCC(=O)N(CCC(Cc1ccccc1)c1ccco1)Cc1ccco1 (centres undefined) | 8 | -37 | -45 | -5.3 | nt | 0.71 | i | 5.6 | 2.1
COc1ccccc1C(=O)NC(=S)Nc1ccc(Cc2ccncc2)cc1 | -2 | -3 | -3 | -3.0 | -1% | 0.72 | i | 1.2 | -0.6
CS(=O)(=O)c1cccc(-c2nnc(NC(=O)CCS(=O)(=O)c3ccccc3)o2)c1 | -7 | 12 | 10 | 3.2 | 5% | 0.68 | nt | -0.6 | -0.1
Cc1csc(NC(=O)c2ccc(S(=O)(=O)N(C)c3ccccc3)cc2)n1 | -16 | nt | nt | nt | 2% | 0.71 | nt | -0.5 | nt
CCOC(=O)N1CCN(C(=O)C[C@@H]2C[C@@]3(C(=O)OCC)CCC=C3N(Cc3ccco3)C2=O)CC1 | nt | 4 | 15 | 0.2 | nt | nt | i | 0.1 | -0.3
Cc1ccc(S(=O)(=O)c2c(N)n(CC3CCOC3)c3nc4ccccc4nc23)cc1 (centres undefined) | -25 | nt | nt | nt | -4% | 0.72 | nt | 1.6 | nt
CCn1c(SCC(=O)N(Cc2ccccc2)C2CCS(=O)(=O)C2)nc2ccccc2c1=O (centres undefined) | nt | nt | nt | nt | 6% | 0.71 | nt | -1.3 | nt
O=C(Oc1ccc(-c2nccc(-c3ccccn3)n2)cc1)c1cccc(C(F)(F)F)c1 | nt | nt | nt | nt | -3% | 0.76 | nt | -2.4 | nt
COc1ccc(CN(C)C[C@H]2Oc3ccc(NC(=O)Nc4ccccc4)cc3C(=O)N([C@@H](C)CO)C[C@H]2C)cc1 | nt | -2 | -13 | 6.0 | nt | nt | i | nt | -2.6
Cc1ccc(S(=O)(=O)CCC(=O)NC2CCCC2)cc1 | 66 | 9 | 6 | 1.2 | nt | 0.67 | i | -3.5 | -0.4
O=C(CCS(=O)(=O)c1ccccc1)Nc1nc(-c2ccc(F)cc2)cs1 | nt | 4 | 0 | 11 | 3% | 0.69 | i | -1.1 | -38
O=C(NN1CCOCC1)c1ccccc1NS(=O)(=O)c1ccc(F)cc1F | 3 | 3 | -6 | 0.7 | 6% | 0.64 | i | 0.1 | 0.2
COc1ccc(-c2nnc(SCc3cc(C)cc(C)c3)o2)cc1 | 0 | nt | nt | nt | 2% | 0.65 | nt | -2.6 | nt
O=C(c1ccccc1F)N1CC[C@@H]2[C@@H](CO)Nc3ccc(C#Cc4ccccc4)cc3[C@@H]21 | nt | -1 | 5 | 7.6 | nt | nt | i | nt | -3.4
Cc1ccc2nc(N(CCCN(C)C)C(=O)c3ccco3)sc2c1 | -14 | -5 | -1 | -5.8 | 7% | 0.67 | i | 2.3 | -1.0
COCCNC(=O)C[C@@H]1C[C@H]2c3cc(NC(=O)CC4CC4)ccc3O[C@H]2[C@H](CO)O1 | nt | 1 | 5 | 0.6 | nt | nt | i | nt | -1.1
Cc1ccccc1C(=O)N1CCC(C(=O)OCc2nc(N)nc(Nc3ccccc3)n2)CC1 | -1 | -9 | -5 | -0.4 | 12% | 0.7 | i | 4.6 | 3.4
COc1ccc(Br)cc1/C=C/C(=O)NC(=S)Nc1ccc(Cl)c(C(=O)O)c1 | 7 | -4 | -5 | 0.5 | -7% | 0.71 | i | -7.0 | -2.3
COc1ccccc1NC(=O)c1ccc(Cl)c(S(=O)(=O)N2CCCCC2)c1 | -1 | -7 | -16 | -0.5 | nt | 0.62 | i | -1.4 | -13
COC(=O)c1[nH]c2cc(C)ccc2c1NC(=O)CN1CCOCC1 | -6 | -1 | -1 | -1.9 | -2% | 0.69 | i | 4.5 | 4.4
COC(=O)c1ccc(NC(=O)CSc2nnc(C(C)NC(=O)c3ccccc3Cl)n2C)cc1 (centres undefined) | -10 | nt | nt | nt | 1% | 0.75 | nt | 3.4 | nt
Cc1ccc(S(=O)(=O)/N=C(/Nc2ccc3[nH]c(=O)[nH]c3c2)c2ccc(F)cc2)cc1 | -6 | 5 | -7 | -0.5 | 12% | 0.72 | i | 0.6 | -7.1
CSc1ccccc1OCc1cc(C(=O)N(C)C(C)c2nc(C)cs2)no1 (centres undefined) | -8 | -7 | -22 | 2.0 | nt | 0.7 | i | -2.0 | 1.5
COc1ccc(N2C(=O)c3cccc4cccc(c34)C2=O)nn1 | -17 | nt | nt | nt | -2% | 0.66 | nt | 0.8 | nt
CO[C@@H]1CN(C)C(=O)c2cc(NC(=O)Nc3c(C)noc3C)ccc2OC[C@@H](C)NC[C@H]1C | nt | 3 | -3 | -2.1 | nt | nt | i | nt | -2.1
CCOC(=O)c1ccc(NC(=O)c2cnccn2)cc1 | nt | nt | nt | nt | -1% | 0.7 | nt | 1.1 | nt
Cc1noc(C)c1NC(=O)N(C)C[C@@H]1Oc2ccc(NC(=O)Nc3cccc4ccccc34)cc2CC(=O)N([C@H](C)CO)C[C@H]1C | nt | 1 | 8 | -0.4 | nt | nt | i | nt | -1.4
COc1ccc(C2CC(c3cccc(OC)c3)n3nc(N)nc3N2)cc1 (centres undefined) | -6 | 11 | 11 | 2.2 | 1% | 0.7 | i | -1.9 | 0.0
CC1CCN(S(=O)(=O)c2nnc(NC(=O)c3ccccc3Br)s2)CC1 | 4 | -52 | -65 | -15 | nt | 0.7 | i | 0.7 | -17
CC1(C)C[C@@H]2C[C@@](C)(CN2C(=O)c2cc(COc3cccc(C(F)(F)F)c3)on2)C1 | -1 | -1 | -1 | 0.4 | nt | 0.69 | i | 5.0 | -3.9
CCCCCCCCN1C(=O)[C@H](CC(=O)NCCCC)C[C@@]2(C(=O)OC)CCCCC=C12 | nt | nt | nt | nt | nt | nt | i | -3.0 | 0.6
C[C@@H]1CCCCO[C@H](CN(C)S(=O)(=O)c2cccs2)[C@@H](C)CN([C@H](C)CO)C(=O)c2cc(NC(=O)CCC(F)(F)F)ccc2O1 | nt | 2 | 3 | -1.3 | nt | nt | i | nt | -1.3
C[C@@H]1CN([C@H](C)CO)C(=O)c2cc(-c3ccc(C#N)cc3)cnc2O[C@H]1CN(C)Cc1ccccn1 | nt | 2 | 0 | -1.4 | nt | nt | i | nt | -9.1
Cc1ccc(C(=O)NCC(=O)N2CCC3(CC2)NCCc2[nH]cnc23)cc1C | -4 | 13 | 22 | 0.8 | nt | 0.68 | i | -3.5 | 0.5
CCOC(=O)C1(Cc2ccccc2Cl)CCN(C(=O)CCn2ccnc2C)CC1 | -1 | 6 | 6 | 0.7 | ? | 0.69 | i | 2.5 | -0.4
O=S(=O)(/N=C(/Nc1ccc(Cl)cc1Cl)c1ccccc1)c1cccs1 | -7 | -39 | -49 | -3.0 | -9% | 0.68 | i | 4.3 | 0.2
CO[C@@H]1CN(C)C(=O)c2ccc(NC(C)=O)cc2OC[C@@H](C)N(S(=O)(=O)c2cn(C)cn2)C[C@@H]1C | nt | -1 | 0 | 1.2 | nt | nt | i | nt | -0.7
Cc1ccccc1C(=O)c1cccn1CC(=O)NCc1ccc(F)cc1 | 3 | 9 | 21 | 4.8 | nt | 0.71 | i | -22 | 0.5
COc1cc(S(=O)(=O)N2CCN(Cc3cccs3)CC2)ccc1NC(C)=O | -2 | 4 | 8 | -1.1 | -1% | 0.71 | i | -2.1 | -1.5
OC(Cc1cccc(C=NN2CCOCC2)n1)(C(F)(F)F)C(F)(F)F | nt | 1 | -4 | 1.6 | -3% | nt | i | 3.8 | 0.9
COc1ccc(-c2ccc3[nH]c4c(c3c2)CCN2C(=O)[C@@H]([C@H](C)O)[C@@H](N(C)C(=O)Nc3ccccc3)C[C@@H]42)cc1 | nt | -50 | -75 | -12 | -6% | nt | i | 3.3 | 3.4
Cc1nc(-c2cccnc2)sc1C(N)=O | -11 | nt | nt | nt | 8% | 0.68 | nt | -1.1 | nt
O=C1NC(=S)S/C1=C1\Sc2ccccc2N1CCCS(=O)(=O)O | ? | nt | nt | nt | ? | 0.82 | nt | 0.3 | nt
CCCCOc1ccc(N2C(=O)CC(N(CCc3ccccc3)C(=O)/C=C/C(=O)O)C2=O)cc1 (centres undefined) | -7 | nt | nt | nt | 5% | 0.73 | nt | -7.7 | nt
Cc1oc2c(C)c(O)ccc2c(=O)c1N1C(=O)c2ccccc2C1=O | -11 | nt | nt | nt | -1% | 0.71 | nt | 1.4 | nt
COc1cccc(NC(=O)COC(=O)c2ccc(F)cc2F)c1 | -10 | nt | nt | nt | 4% | 0.64 | nt | 2.5 | nt
O=C(Nc1ccc2c(c1)OCCO2)C1CC(c2ccccc2Cl)=NO1 (centres undefined) | 0 | -7 | -19 | 0.5 | 2% | 0.68 | i | -0.9 | -0.5
Cc1noc(C)c1S(=O)(=O)Nc1ccc2c(c1)C(=O)N([C@H](C)CO)C[C@@H](C)[C@H](CN(C)CC1CCCCC1)O2 | nt | 4 | 6 | -0.3 | nt | nt | i | nt | -1.0
NS(=O)(=O)c1ccc(CCNC(=O)c2cc3ccccc3oc2=O)cc1 | nt | 9 | 7 | 1.6 | nt | 0.66 | i | 1.5 | -2.1
CN(C)C(=O)CCC(=O)N1CCCCC1C(=O)Nc1ccc(Oc2ccccc2F)cc1 (centres undefined) | nt | -1 | -6 | 11 | nt | 0.71 | i | 1.9 | 4.5
C[C@H]1CCCCO[C@H](CN(C)Cc2ccc(C(=O)O)cc2)[C@@H](C)CN([C@@H](C)CO)C(=O)c2cc(NS(=O)(=O)c3cn(C)cn3)ccc2O1 | nt | 11&5 | 22&5 | -1.0&-2.0 | 6% | nt | i | 1.7 | -1.5
O=C(NCC[C@@H]1CC[C@H](NC(=O)c2ccccc2F)[C@H](CO)O1)c1cnccn1 | nt | 1 | 3 | -0.1 | nt | nt | i | nt | -0.4
CCOc1ccc(C(C#N)N2CCOCC2)cc1OC (centres undefined) | 1 | nt | nt | nt | 1% | 0.65 | nt | 5.3 | nt
Cc1cc(C)c2c(c1)cc(C)c1nnc(SCC(=O)Nc3ccc(S(=O)(=O)N4CCCCC4)cc3)n12 | -6 | nt | nt | nt | ? | 0.66 | nt | 1.6 | nt
Cn1ccnc1C(=O)c1cc(=O)c2ccccc2o1 | -4 | 6 | 5 | -3.1 | 3% | 0.72 | nt | 1.3 | nt
COc1ccc(CN(C)CC(=O)NC(=O)NCc2ccccc2)cc1OC | -14 | -6 | 1 | 2.1 | -1% | 0.69 | i | -2.0 | 2.4
C[C@H]1CN([C@@H](C)CO)C(=O)c2cc(NC(=O)Nc3ccc(C(F)(F)F)cc3)ccc2O[C@H]1CN(C)C(=O)Nc1ccc(F)cc1 | nt | 0 | -2 | 0.0 | nt | nt | i | nt | 2.5
CCCn1c(SCC(N)=O)nnc1-c1ccco1 | 5 | nt | nt | nt | 10% | 0.68 | nt | -2.7 | nt
CC(C)Oc1ccc(CNC(=O)Cn2c(=O)oc3ccccc32)cc1 | -20 | 2 | 11 | -3.5 | 0% | 0.73 | i | 5.9 | -4.2
